Source: PubChem BioAssay
TRPV1 potentiator: HTS Assay for Compounds that Act as Potentiators of the Vanilloid Receptor 1. 320,000 compounds, 0.02% hits. TRPV1-expressing cells, Fluo-8 calcium influx, capsaicin EC20 potentiation; host cell line not named in the record; control for the full effect not named in the record. potentiation, % at 8.33 µM; active means potentiation above 80%; inconclusive means 30% to 80%; inactive means below 30%; further: 0% is about no effect
Target sequence (Q8NER1 whole entry, looked up): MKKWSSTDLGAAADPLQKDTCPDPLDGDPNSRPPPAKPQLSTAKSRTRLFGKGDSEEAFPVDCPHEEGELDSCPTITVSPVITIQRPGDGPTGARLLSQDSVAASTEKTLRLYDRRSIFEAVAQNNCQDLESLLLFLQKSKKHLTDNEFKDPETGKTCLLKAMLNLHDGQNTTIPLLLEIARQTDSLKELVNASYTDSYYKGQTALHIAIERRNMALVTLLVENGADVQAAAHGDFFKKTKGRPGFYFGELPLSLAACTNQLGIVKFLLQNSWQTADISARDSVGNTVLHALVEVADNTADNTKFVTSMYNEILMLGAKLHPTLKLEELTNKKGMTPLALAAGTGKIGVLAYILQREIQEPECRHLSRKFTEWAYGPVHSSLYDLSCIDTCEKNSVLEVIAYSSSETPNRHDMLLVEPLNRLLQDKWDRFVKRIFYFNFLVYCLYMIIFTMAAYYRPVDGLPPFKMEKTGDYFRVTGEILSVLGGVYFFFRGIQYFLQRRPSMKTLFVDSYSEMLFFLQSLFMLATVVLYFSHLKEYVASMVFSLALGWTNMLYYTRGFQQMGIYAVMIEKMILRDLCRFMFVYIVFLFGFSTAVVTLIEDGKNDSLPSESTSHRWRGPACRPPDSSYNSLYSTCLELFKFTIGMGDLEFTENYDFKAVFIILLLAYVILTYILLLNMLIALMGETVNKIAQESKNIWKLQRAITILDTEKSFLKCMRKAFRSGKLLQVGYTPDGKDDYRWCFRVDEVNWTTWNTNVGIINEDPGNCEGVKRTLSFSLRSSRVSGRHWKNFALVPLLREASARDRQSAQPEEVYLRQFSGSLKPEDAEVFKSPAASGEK
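Cells expressing TRPV1 were dye-loaded with Fluo-8 and read kinetically: 10 s baseline, 3 min after compound (agonist portion), then 2 min after EC20 capsaicin (allosteric enhancer portion). Calcium-bound dye fluorescence at 480/520 nm.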
Menin MLL FP FL: qHTS Assay for Inhibitors Targeting the Menin-MLL Interaction in MLL Related Leukemias: Competition With Fluorescein Labeled MLL-derived Peptide; FP activity change, % at 61.4 µM; Fluorescence polarization, fluorescein-MLL peptide displacement from menin; AID 1766, 2009; 290,000 tested, under 10 active; inconclusive = falling polarisation curve, or a change in total fluorescence; inactive = total fluorescence flat and polarisation flat or rising; no compound was filed as active; the % refers to the polarisation; negative = inhibition;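 further: % of control where 0% means no effect; inhibitors lower the polarisation; unlabelled MLL peptide was the positive control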
gsp agonist: qHTS for Agonist of gsp, the Etiologic Mutation Responsible for Fibrous Dysplasia/McCune-Albright Syndrome: qHTS; gsp mutant cells, cAMP HTRF, 30 min; control for the full effect not named in the record; Potency, µM (titrated, usually from 76.9 µM), for inactives: top-dose activation (cAMP increase), most hits filed as activators; 340,000 compounds, 0.13% hits; AID 624287, 2012; active = well fitted activation curve with a large enough effect; inconclusive = small, poorly fitted or top-dose-only effect, or another doubt; inactive = no such curve, though single readings can be large or run the other way; cell line not stated here;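 further: phosphodiesterase inhibitor Ro 20-1724 added with compounds to block cAMP breakdown; potency means the concentration at half of the fitted maximal effect; nearly all actives have a fitted effect of over 60% in size; about a fifth of the inactives were tested at one dose only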
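Cells in DMEM/10% FBS with G418 were pretreated with compounds in DMSO plus […] (300 uM stock) for 30 min at 37C. cAMP was measured by HTRF (cAMP-d2 plus anti-cAMP antibody-K) after 30 min at room temperature.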
gsp antagonist: qHTS for Antagonists of gsp, the Etiologic Mutation Responsible for Fibrous Dysplasia/McCune-Albright Syndrome: qHTS; gsp-mutant cells, cAMP HTRF, 30 min; control for the full effect not named in the record; Potency, µM (series often up to 76.9 µM), for the others: at the top dose activity change, negative = inhibition, actives largely listed as inhibitors; 340,000 compounds, 0.4% hits; active = falling curve of any shape with a large fitted effect; inconclusive = falling curve, mostly with a smaller effect; inactive = flat or rising curve; cell line not stated here;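 further: intracellular cAMP measured with PDE inhibitor Ro 20-1724 present during compound exposure; potency means the concentration at half of the fitted maximal effect; on the % scale 0 is the no-effect control and ±100 the full control effect; nearly all actives have a fitted effect of over 65% in size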
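Measurement of cellular cAMP by homogeneous time-resolved fluorescence following a 30 min compound exposure at 37C. The PDE inhibitor […] was present throughout; the assay buffer was DPBS with 0.05% BSA and 0.005% Tween 20.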
Sfp inh: qHTS Assay for Inhibitors of Bacillus subtilis Sfp phosphopantetheinyl transferase (PPTase) | Biochemical Sfp PPTase activity, qHTS | AID 1490, 2009 | 4'-phosphopantetheinyl transferase ffp (Bacillus subtilis), Q9F4F7 | Potency, µM, for the others: max response, negative = inhibition, most hits filed as inhibitors | 310,000 compounds, 3.5% hits; active means well fitted inhibition curve with a large enough effect; inconclusive means small, poorly fitted or top-dose-only effect, or another doubt; inactive means no such curve, though single readings can be large or run the other way;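 further: the enzyme is Sfp with the accession as filed and its product quenches rhodamine fluorescence; potency means the concentration at half of the fitted maximal effect; 0% = enzyme reaction without inhibitor and -100% = no enzyme wells; top concentration of the series not given in the record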
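Buffer: 50 mM Hepes-Na pH 7.6, 10 mM MgCl2, 0.01% Nonidet P-40, 0.01% BSA. Enzyme 15 nM, pre-exposed to compound 15 min; substrates then added and fluorescence change tracked over 30 min.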
ClpP mod: qHTS Assay for Activators of ClpP | ATP-dependent Clp protease proteolytic subunit (Bacillus subtilis (strain 168)), P80244 | 340,000 compounds, 1.9% hits | AID 651965, 2013 | purified B. subtilis ClpP, FRET peptide cleavage, 20 min | Potency, µM (doses to about 57.5 µM), for inactives: top-dose activity change, negative = active; active = well fitted falling curve with a large enough effect; inconclusive = small, poorly fitted or top-dose-only effect; inactive = no such curve, though single readings can be large or run the other way; further: potency means the concentration at half of the fitted maximal effect; the source files actives as falling curves though it sought activators and does not explain the sign; nearly all actives have a fitted effect of over 65% in size; many hits overshoot -100%
Target sequence (P80244 whole entry, looked up): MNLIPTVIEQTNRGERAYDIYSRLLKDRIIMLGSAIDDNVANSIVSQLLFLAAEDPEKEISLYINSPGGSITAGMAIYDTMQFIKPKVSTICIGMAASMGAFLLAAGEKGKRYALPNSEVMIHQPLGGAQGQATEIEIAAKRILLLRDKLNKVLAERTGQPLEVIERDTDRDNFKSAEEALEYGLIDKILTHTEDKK
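Purified B. subtilis ClpP, 10 microg/mL final in Tris/HCl pH8 with KCl, BSA, glycerol and Tween-20, cleaved an Abz/nitrotyrosine-quenched decapeptide. Fluorescence (ex 320, em 430) was read at 0 and 20 min at room temperature. Delta was normalized to 5.8 microM ADEP and DMSO/no-enzyme controls.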
TRPML1 blocker: qHTS for Inhibitors of the Human Mucolipin Transient Receptor Potential 1 (TRPML1). Mucolipin-1 (Homo sapiens), Q9GZU1. TRPML1-inducible cells, Ca2+ dye fluorescence, FDSS; stronger effect = lower value; inhibition of EC80 agonist-evoked calcium signal. activity change, negative = inhibition, % (test concentration not listed). 390,000 compounds, 0.02% hits. AID 624415, 2012; in the data active means activity change below about -50%; inconclusive means about -30% to -50%; inactive means above about -30%;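 further: stimulus is agonist 54-4 at its EC80 concentration; on the % scale 0 is the no-effect control and ±100 the full control effect; compound concentration not given in the record; the text of the record puts the active cut at -80%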
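TRPML1-DL cells, Tet-induced overnight (~16 h, 37 °C) at 1,500 cells/well, were loaded with Ca8 no-wash dye plus quencher for 45-90 min at room temperature. Compounds were pinned during FDSS kinetic reading; agonist 54-4 at EC80 (4 uM final) then added.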
Active calls of the source: *; ? = inconclusive; nt = not tested or not shown; & = joins results of further samples; [ ] = another dose, or the depositor's remark.

SMILES	TRPV1 potentiator	Menin MLL FP FL	gsp agonist	gsp antagonist	Sfp inh	ClpP mod	TRPML1 blocker
CN(C)CCCN(C(=O)c1ccc(S(=O)(=O)N(C)C)cc1)c1nc2ccc(F)cc2s1	16	-0.7	-21%	-15%	13%	1.6%	4
O=C(c1nc2ccccn2c1CN1CCCC(O)C1)N1CCN(C2CCCCC2)CC1 (centres undefined)	-1	-22	6%	6%	11%	-19%	18
CCOC(=O)c1sc2cc([N+](=O)[O-])cc(SCC(C)C)c2c1N	0	?	?	-14%	-5%	-2.3%	19
NS(=O)(=O)c1cccc(NS(=O)(=O)c2cccc(C(F)(F)F)c2)c1	29	2.3	14%[15.4 µM]	-10%	17%	nt	5
CC1(C)CC(NCc2ccccc2)CCO1 (centres undefined)	-3	-2.1	0%[15.4 µM]	8%	-6%	-1.3%	-8
COc1c(S(=O)(=O)NCCN2CCOCC2)ccc(Cl)c1Cl	3	5.3	-1%	-1%	9%	-2.3%	7
Cc1ccc(C(=O)NC(=S)Nc2nc(-c3cccc([N+](=O)[O-])c3)cs2)c(Cl)c1	0	-2.4	-36%[inhibitor][15.4 µM]	7%	-7%	nt	-1
O=CNCCCc1nc2ccccc2n1Cc1cccc2ccccc12	-4	-3.0	4%	2%	-3%	0.4%	1
Clc1cccc(Cl)c1Cn1c(-c2cccnc2Cl)nc2ccccc21	-14	4.4	1%	-10%	-10%	-1.8%	5
c1ccc(-c2nc(C3CCCCC3)no2)cc1	25	1.7	3%	1%	24%	-2.7%	2
NNC(=O)c1ccc(COc2ccccc2)cc1	-8	4.9	-6%	2%	-2%	0.3%	8
C=CCOC(=O)C1C(=O)CC(C)(O)C(C(=O)OCC=C)C1c1ccc(OCC)cc1 (centres undefined)	-16	1.8	28%	-4%	21%	0.7%	-19
CC(C)[C@H](NC(=O)c1ccc([N+](=O)[O-])cc1Cl)C(=O)N1CCN(C/C=C/c2ccccc2)CC1	nt	nt	3%	-19%	nt	nt	-15
CCCCCC(=O)Nc1cc2[nH]c(=O)cc(COC)c2cc1C	?	-0.1	?	5%	25%	?	4
CCCCN(CCCC)CC(O)COc1ccc(Br)cc1 (centres undefined)	-4	-4.4	-8%[15.4 µM]	10%	-22%	nt	23
Cc1oc2c(c1C(=O)NCc1cc(C(=O)O)co1)CCCC2	1	-0.4	-18%	4%	1%	-0.8%	17
Cc1cc(C)n(CCc2nc(-c3ccc(C(C)(C)C)cc3)cs2)n1	-14	3.6	1%	-1%	?	48%	24
Cc1cccc(OC(=O)CCN2C(=O)C3C4C=CC(C5CC45)C3C2=O)c1C (centres undefined)	-3	0.3	2%	-25%	4%	1.8%	-5
O=C(NCc1cccs1)c1ccc(CS(=O)Cc2ccc(Cl)cc2)o1 (centres undefined)	nt	nt	-2%	nt	nt	1.5%	0
COc1ccc(NC(=O)COC(=O)C2CC2)cc1S(=O)(=O)N1CCCCC1	-2	nt	6%	11%	nt	-3.3%	18
O=C(Nc1ccc(Br)cc1Cl)c1ccc(OCC2CCCO2)cc1 (centres undefined)	nt	nt	2%[15.4 µM]	-21%	nt	-0.9%	-4
CC(=O)N1CCc2cc(S(=O)(=O)NCCC(=O)NC3CCN(Cc4ccccc4)CC3)ccc21	7	2.3	-2%	10%	23%	1.6%	-9
CCOC(=O)c1sc(-c2ccc(OC)cc2)cc1N	4	7.0	9%	2%	9%	?	1
COc1ccc(-n2nc(C(=O)NCC(=O)Nc3cc(Cl)c(OC)cc3OC)c3ccccc3c2=O)cc1	5	13	-7%[15.4 µM]	-18%	7%	1.0%	-1

Record cards (already shown).
Profile of `Cc1cc(C)n(CCc2nc(-c3ccc(C(C)(C)C)cc3)cs2)n1` = TRPV1 potentiator = -14; Menin MLL FP FL = 3.6; gsp agonist = 1%; gsp antagonist = -1%; Sfp inh = ?; ClpP mod = 48%; TRPML1 blocker = 24
Profile of `O=C(NCc1cccs1)c1ccc(CS(=O)Cc2ccc(Cl)cc2)o1` (centres undefined) = TRPV1 potentiator = nt; Menin MLL FP FL = nt; gsp agonist = -2%; gsp antagonist = nt; Sfp inh = nt; ClpP mod = 1.5%; TRPML1 blocker = 0

(next part)
SMILES	TRPV1 potentiator	Menin MLL FP FL	gsp agonist	gsp antagonist	Sfp inh	ClpP mod	TRPML1 blocker
Cc1ccccc1C(=O)N=c1ccn(-c2nc3ccccc3nc2NS(=O)(=O)c2ccccc2)cc1	-6	?	10%	0%	16%	-1.4%	-6
CCC1CCC(N2CCN(c3ccc(F)cc3)CC2)CC1 (centres undefined)	9	-2.8	-6%	7%	-6%	0.4%	7
CCCn1c(SCC(=O)NC(C)C)nc2sc3c(c2c1=O)CCC3	-21	2.8	?	-6%	3%	nt	5
CCCCc1c(C)[nH]c(=S)[nH]c1=O	-7	-8.1	?	1%	-5%	0.7%	1
COc1ccc(CNC(=O)c2ccc(CN3CCOCC3)cc2)cc1	-18	1.0	32%	0%	11%	-0.5%	-5
O=C(CSc1nnc2c(n1)[nH]c1ccc(F)cc12)NC1CC1	20	-4.7	1%	1%	0%	nt	37
CNc1ncnc(NC)c1[N+](=O)[O-]	nt	nt	-17%	12%	nt	nt	-2
O=C(c1ccccc1)c1cccc(NC(=O)C2CC2)c1	3	1.8	25%	-6%	14%	0.5%	-4
Cc1ccc(S(=O)(=O)N2CCN(C(=O)CSc3nc4ccccc4c(=O)[nH]3)CC2)cc1	-6	8.6	14%	6%	9%	-7.4%	-11
Cc1ccc(Cl)cc1N(CC(=O)NC1CCCC1)C(=O)c1csnn1	1	4.0	-6%[15.4 µM]	16%	17%	-1.7%	-9
CCOC(=O)N1CCC(=NNC(=O)c2cc3ccccc3cc2O)CC1	17	12	-8%	10%	2%	-0.8%	-14
CC1(C)C2CC=C(/C=N/n3cnnc3)C1C2 (centres undefined)	13	3.2	?	-3%	9%	0.2%	3

5 of the entries above in order of the TRPML1 blocker value, rising.
SMILES	Menin MLL FP FL	gsp agonist	gsp antagonist	Sfp inh	TRPML1 blocker
Cc1ccc(S(=O)(=O)N2CCN(C(=O)CSc3nc4ccccc4c(=O)[nH]3)CC2)cc1	8.6	14%	6%	9%	-11
Cc1ccccc1C(=O)N=c1ccn(-c2nc3ccccc3nc2NS(=O)(=O)c2ccccc2)cc1	?	10%	0%	16%	-6
O=C(c1ccccc1)c1cccc(NC(=O)C2CC2)c1	1.8	25%	-6%	14%	-4
CCCn1c(SCC(=O)NC(C)C)nc2sc3c(c2c1=O)CCC3	2.8	?	-6%	3%	5
O=C(CSc1nnc2c(n1)[nH]c1ccc(F)cc12)NC1CC1	-4.7	1%	1%	0%	37

The results go on:
SMILES	TRPV1 potentiator	Menin MLL FP FL	gsp agonist	gsp antagonist	Sfp inh	ClpP mod	TRPML1 blocker
COc1cc(NC(=O)[C@@H](NC(=O)N2CCn3c2nc2ccccc23)C(C)C)cc(OC)c1	-1	-3.8	-27%	?	-5%	-1.7%	-4
CC(C)CC(=O)N1CCN(Cc2ccc3c(c2)OCO3)CC1	-4	1.3	1%	8%	-17%	3.6%	-12
O=S(=O)(c1ccc(-c2ccccc2)cc1)N1CCOCC1	-7	-12	2%	10%	11%	1.2%&-5.9%	3
N#Cc1cc(-c2ccccc2)nc(Oc2ccccc2)n1	5	0.2	?	-14%	-9%	2.0%	-4
CC(=O)Nc1ccc(Nc2ccc3c4c(cc(=O)n3C)-c3ccccc3C(=O)c24)cc1	-4	-7.1	5%[15.4 µM]	-17%	8%	nt	-13
COc1ccc(CCNC(=O)C(=O)NCC2OCCCN2S(=O)(=O)c2cc(C)ccc2C)cc1 (centres undefined)	-5	nt	-20%[15.4 µM]	-4%	7%	1.2%	-8
Cc1c(C)c2c(c(C)c1O)CCC(C)(C(=O)O)O2 (centres undefined)	-8	nt	nt	1%	nt	-4.3%	10
CCN(CC)C(=O)Cn1c(=O)n(C)c2ccccc21	-2	-1.7	9%	5%	4%	-0.4%	-13
Cc1ccc([N+](=O)[O-])cc1S(=O)(=O)NCCc1cn2ccccc2n1	17	3.9	-13%	5%	21%	-0.8%	-7
Cc1ccc(Cl)cc1NC(=O)c1ccccc1OCC(=O)Nc1ccc(Cl)cc1	?	0.2	5%	0%	?	?	-7
CN(C)c1ccc(C=c2c3ccccc3n3c2c2c([n+]3C)CCCC2)cc1	nt	nt	8%	-12%	nt	-13%	12
Cc1ccc(-c2cc(=O)c3ccc(Cl)cc3[nH]2)cc1	-4	4.8[94.6 µM]	nt	3%	12%&8%	-2.3%	12
CCNc1[nH]c(=O)n(C)c(=O)c1N=O	4	1.4	-68%[inhibitor]	-8%	-19%	0.7%	-7
COc1ccc(CCNC(=O)CCC(=O)NC2CCCCC2)cc1OC	6	1.7	1%	8%	3%	1.2%	-1
CCOP(=O)(c1ccccc1)C(O)c1ccc([N+](=O)[O-])cc1 (centres undefined)	-3	-0.1	16%[15.4 µM]	-10%	13%	0.3%	21
CN(C)CCN1C(=O)C(=O)/C(=C(/O)c2ccccc2)C1c1ccccc1F (centres undefined)	2	0.0	?	0%	2%	-3.9%	-20
CCN(CC#CCC1(O)c2ccccc2-c2ccccc21)CCO	nt	0.9	-8%	2%	89µM*	-16%	19
Cc1ccc(OCc2cc(C(=O)NC3CCOC3)no2)cc1C (centres undefined)	-13	-2.6	9%	2%	7%	-0.2%	-7
O=C(O)c1ccccc1C(=O)OCCc1cc2ccccc2c(=O)o1	12	nt	26%	-5%	nt	-11%	5
CCSc1nnc(NC(=O)[C@@H](NC(=O)c2ccccc2F)C(C)C)s1	10	-6.2	12%[15.4 µM]	-1%	3%	nt	46
